FEN1 inhibitor – qHTS Assay for the Inhibitors of Human Flap endonuclease 1 (FEN1); actives 0.35% (n = 390,000); Potency, µM (titrated, usually from 114 µM), for inactives: at the highest dose activity change, negative = inhibition, most hits filed as inhibitors; P39748; Recombinant FEN1 flap cleavage, fluorescence, 15 min; AID 588795, 2011; also: nearly all actives have a fitted effect of over 65% in size
Target sequence (P39748 whole entry, looked up): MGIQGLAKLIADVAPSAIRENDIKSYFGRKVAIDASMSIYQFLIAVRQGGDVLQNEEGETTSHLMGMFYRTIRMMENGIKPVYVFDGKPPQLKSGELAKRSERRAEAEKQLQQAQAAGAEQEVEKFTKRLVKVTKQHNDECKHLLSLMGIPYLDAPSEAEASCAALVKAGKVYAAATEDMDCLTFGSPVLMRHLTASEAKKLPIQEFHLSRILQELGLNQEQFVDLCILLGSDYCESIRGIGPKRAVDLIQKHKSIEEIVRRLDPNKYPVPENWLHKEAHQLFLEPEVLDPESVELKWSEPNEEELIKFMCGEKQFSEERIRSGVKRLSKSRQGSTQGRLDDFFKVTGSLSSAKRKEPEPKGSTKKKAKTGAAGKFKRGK
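Concentration–response screening of FEN1 (10 nM): 15 min compound preincubation at room temperature, reaction started with 50 nM substrate and read at 0 and 15 min. Corrected, normalized data were fitted by a four-parameter Hill equation.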
TDP1 block – qHTS Assay for Inhibitors of Tyrosyl-DNA Phosphodiesterase (TDP1) | Potency, µM (top dose mostly 130 µM), for inactives: at the top dose activity change, negative = inhibition, hits mostly inhibitors | actives 0.28% (n = 350,000) | Tyrosyl-DNA phosphodiesterase 1 (Homo sapiens), Q9NUW8 | AID 485290, 2010 | recombinant TDP1, AlphaScreen DNA substrate cleavage; also: nearly all actives have a fitted effect of over 40% in size
Target sequence (Q9NUW8 whole entry, looked up): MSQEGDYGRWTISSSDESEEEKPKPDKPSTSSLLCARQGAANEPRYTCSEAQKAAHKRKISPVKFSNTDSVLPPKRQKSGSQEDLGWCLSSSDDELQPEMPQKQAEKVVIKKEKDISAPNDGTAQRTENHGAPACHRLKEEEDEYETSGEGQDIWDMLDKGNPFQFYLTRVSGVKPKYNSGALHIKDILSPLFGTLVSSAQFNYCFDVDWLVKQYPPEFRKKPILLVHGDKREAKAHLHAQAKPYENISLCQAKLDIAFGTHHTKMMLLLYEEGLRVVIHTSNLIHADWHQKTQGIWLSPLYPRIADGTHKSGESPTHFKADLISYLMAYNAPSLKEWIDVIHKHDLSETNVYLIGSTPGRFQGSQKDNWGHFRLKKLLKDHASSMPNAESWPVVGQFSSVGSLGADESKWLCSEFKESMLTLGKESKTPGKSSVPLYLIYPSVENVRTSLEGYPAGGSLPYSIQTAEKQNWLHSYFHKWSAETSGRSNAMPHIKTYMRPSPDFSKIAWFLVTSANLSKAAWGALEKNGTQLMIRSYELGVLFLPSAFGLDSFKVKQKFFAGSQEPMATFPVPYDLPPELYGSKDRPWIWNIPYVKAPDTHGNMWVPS
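Tdp1 1 nM final; 15 min RT w/ cpd; substrate 15 nM, 5 min; beads 10 ug/ml, 10 min; AlphaScreen read. Neg ctrl: no enzyme.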
* hit, by the source's call; x = no result given; & = joins results of further samples; [ ] = remark or other dose. Calls follow the shape of the dose curve; as a rule, active = well fitted inhibition curve with a large enough effect; inconclusive = small, poorly fitted or top-dose-only effect; inactive = no such curve, though single readings can be large or run the other way. % is scaled to controls: 0 for no effect and ±100 for the full control effect; potency is read from the fitted curve at half-maximal effect. An excerpt, and most or all hits are left out here.

SMILES	FEN1 inhibitor	TDP1 block
COc1cc(/C=C(/C#N)c2ccc(F)cc2)ccc1Oc1ccc([N+](=O)[O-])cn1	1.7%	0.0%
O=C(/C=C/c1ccc(Cl)cc1)NCc1cccs1	3.9%	0.6%
CC1CC(C)CN(c2ncc3c(n2)CC(c2ccccc2Cl)CC3=O)C1 (stereo not drawn)	-20.5%	0.0%
CCc1nc(NCC2CCCN2CC)c2nnn(Cc3ccccc3F)c2n1 (stereo not drawn)	-2.7%	5.9%
O=C(CCn1c(=O)c2cccn2c2cccnc21)NCc1cccc(Cl)c1	-14.9%	0.3%
CN(Cc1ccccc1)c1nc2c(c(=O)[nH]c(=O)n2C)n1CCCSc1ncccn1	-6.2%	6.1%
Cc1ccc(OCC(=O)O/N=C(\N)c2ccncc2)c(C)c1	3.6%	2.9%[0.0935 µM]
COc1cc(-c2noc(C)c2C(=O)NCCO)cc(OC)c1OC	37.3%&2.0%	x
COc1ccc(NC(=O)C(=O)c2cn(CC(=O)N3CCOCC3)c3ccccc23)cc1OC	10.6%	2.4%
COc1ccc(C2=NOC(C(=O)NC(C)C)C2)cc1 (stereo not drawn)	-13.2%	-2.9%
Cc1ccc(-c2noc(C3CCCN(C(=O)c4ccc(Cl)cc4)C3)n2)o1 (stereo not drawn)	10.1%	11.4%
O=C(Cc1ccccc1)NNC(=S)Nc1ccc(Cl)cc1	-0.5%	10.1%
O=C(Cc1ccc(Br)cc1)N(Cc1ccccc1)c1ccccn1	-5.3%	-2.4%
O=C(Nc1ccc(F)cc1)c1nc(S(=O)(=O)Cc2ccccc2)ncc1Cl	-8.4%	2.6%
Cc1cc(-c2nnc(CCC(=O)N3CCN(Cc4cccnc4)CC3)o2)c(C)o1	1.6%	0.0%
C/C(=N\NC(=O)c1c(Cl)c(C)nn1C)c1cccc(NC(=O)C2CCCC2)c1	-1.6%	5.3%
O=C(NC(C(=O)N/N=C/c1ccccc1)c1n[nH]c(=O)c2ccccc12)c1ccccc1 (stereo not drawn)	-19.4%	7.3%
COCC1CCCN(C(=O)c2cc(COc3ccc4ncccc4c3)on2)C1 (stereo not drawn)	-5.2%	0.9%
CSc1cccc(NC(=O)NCc2cccc(CNC(=O)Nc3cccc(SC)c3)c2)c1	17.9%	x
O=C(OCC#CCSc1nnc(-c2ccncc2)o1)c1sc2ccccc2c1Cl	2.1%	4.7%
Cc1ccc(-c2nc(NCc3ccco3)c3ccccc3n2)cc1	-22.7%	-2.2%
CC1CC(C)CN(C(=O)c2cc(-c3ccccn3)nc3ccccc23)C1 (stereo not drawn)	-6.2%	5.1%
Oc1ccccc1C1=Nc2ccccc2N=C(c2ccco2)C1	0.7%	0.0%
Cc1noc(C)c1S(=O)(=O)NCCc1ccc(S(N)(=O)=O)cc1	1.6%	2.9%
O=C(O)c1ccccc1C(=O)NCc1ccc(F)cc1	-15.8%	-4.0%
Other entries follow:
SMILES	FEN1 inhibitor	TDP1 block
O=C(COc1ccc2ccccc2c1Br)NCc1ccccn1	-7.9%	5.1%
N#Cc1cccc(S(=O)(=O)NCC(=O)OCC(=O)c2ccc[nH]2)c1	7.2%	-1.2%
N#Cc1ccc(CN2CCN(C(=O)CN3C(=O)NC4(CCCC4)C3=O)CC2)cc1	-7.0%	-5.9%
O=C(CSc1nnc(-c2ccc(Br)cc2)n1CCc1ccccc1)NC1CCS(=O)(=O)C1 (stereo not drawn)	2.5%	0.6%
CCOC(=O)C1CCCN(C(=O)c2ccccc2NC(=O)C2=C(C)OCCS2)C1 (stereo not drawn)	0.4%	1.7%
Cc1cc2c3c([nH]c2cc1S(=O)(=O)NCc1ccc(CN2CCCCCC2)o1)CC(C)(C)CC3=O	13.5%	3.7%
COc1ccc(OCC(=O)Nc2ccc(S(=O)(=O)N3CCCCC3)cc2)cc1	-25.7%	x
CC(C)Cn1c2ccccc2c2cc(C(=O)O)ccc21	3.3%	7.8%
COC(=O)c1[nH]c2ccccc2c1NC(=O)CN1CCN(c2cccc(OC)c2)C(C)C1 (stereo not drawn)	-15.6%	10.9%
c1ccc2c(c1)[nH]c1c(N3CCCC3)ncnc12	2.2%	5.2%
COc1ccc(-c2nc3ccccn3c2C=O)cc1	-1.7%	4.7%
CCCNC(=O)c1ccccc1NC(=O)CSCc1ccc(OC)cc1	4.4%	2.8%
CN(CC(=O)Nc1ccc(Cl)cc1)C(=O)c1ccc(NS(=O)(=O)c2ccc3[nH]c(=O)[nH]c3c2)cc1	-0.9%	-8.3%[0.505 µM]
CC(c1cccs1)N(C)Cc1nc(CCc2ccccc2)no1 (stereo not drawn)	-11.9%	-10.9%
CCN(C(=O)C1CCCO1)c1ccccc1 (stereo not drawn)	-2.7%	6.0%
Cc1ccsc1/C=N/NC(=O)c1cc(-c2ccncc2)nc2ccccc12	-13.1%	7.9%
O=C(NCCc1nnc2ccc(SCC(=O)N3CCCC3)nn12)c1ccc(F)cc1	3.9%	5.5%[56.1 µM]
Nc1cc(OC(=O)c2ccccc2Br)nn1S(=O)(=O)c1ccccc1	-13.6%	4.4%
O=c1cnnc(N/N=C/C2CC=CCC2)[nH]1 (stereo not drawn)	12.0%	5.3%
Nc1nc(SCC(=O)N2CCOCC2)[nH]c(=O)c1-c1ccccc1	3.6%	0.0%
Cc1sc2ncnc(N[C@@H](Cc3c[nH]c4ccccc34)C(=O)O)c2c1C	-3.0%	2.8%
CCN1C(=O)[C@H]2[C@@H](c3ccc(C)cc3)N3C(=O)N(c4cccc(Br)c4)C(=O)[C@@]3(Cc3ccccc3)[C@H]2C1=O	-1.8%	-2.3%
O=C(CN1CCOc2ccccc21)N1CCCC1	-0.2%	3.9%
Cn1c(=O)c2ccccc2n(CC(=O)NC2CCCCC2)c1=O	14.6%	1.2%
COc1ccc(CCN(C)C2CCCN(C(=O)Cn3cnnn3)C2)cc1OC (stereo not drawn)	-6.0%	4.7%

Part of the list above, set out differently:
O=C(CN1CCOc2ccccc21)N1CCCC1
  FEN1 inhibitor: -0.2% | TDP1 block: 3.9%
Cn1c(=O)c2ccccc2n(CC(=O)NC2CCCCC2)c1=O
  FEN1 inhibitor: 14.6% | TDP1 block: 1.2%
COc1ccc(CCN(C)C2CCCN(C(=O)Cn3cnnn3)C2)cc1OC (stereo not drawn)
  FEN1 inhibitor: -6.0% | TDP1 block: 4.7%

Continuation.
SMILES	FEN1 inhibitor	TDP1 block
O=C(CNC(=O)Cc1cccc2ccccc12)NCc1ccc(F)cc1	-2.4%	2.6%
C=CCOc1ccc(/C=C/C(=O)OCC(=O)N(C)CC(=O)Nc2ccccc2Cl)cc1	-3.0%	x
COc1ccc(-c2noc(CCN3C(=O)c4ccccc4C3=O)n2)cc1OC	-5.7%	1.1%
Cc1cccc(C)c1NC(=O)N1CCC(c2nc3ccccc3o2)CC1	-14.8%	5.2%
O=C(NC1CCS(=O)(=O)C1)c1cccnc1 (stereo not drawn)	x	6.3%
CCOC(=O)c1c(-c2cccs2)csc1NC(=O)CN1CCOCC1	-23.2%	3.3%
O=C(NC1CCCCC1)C(c1ccccc1)N(Cc1ccco1)C(=O)Cn1cnc2ccccc21 (stereo not drawn)	7.9%	-6.6%
Cn1c(N)c(S(=O)(=O)N2CCN(c3cccc(Cl)c3)CC2)c(=O)n(C)c1=O	-5.8%	1.1%
O=C(OC1CCCCC1=O)c1cccc(S(=O)(=O)N2CCCCC2)c1 (stereo not drawn)	-7.1%	x
O=C(NCCOC(=O)c1ccc(C(=O)OCCNC(=O)c2ccccc2)o1)c1ccccc1	-1.9%	-2.1%
COc1ccc2[nH]cc(CCNC(=O)Cc3c(F)cccc3Cl)c2c1	-1.9%	x
COc1ccc(NC(=O)c2cc(F)cc(F)c2)cc1Cl	7.8%	4.9%
COc1cc(NC(=O)Nc2c(C)n(C)n(-c3ccccc3)c2=O)cc(OC)c1OC	-4.8%	x
CCOc1ccc(C(=O)Nc2ccccc2N2CCOCC2)cc1	4.2%	3.8%
CCOC(=O)C1=C(C)Nc2nnnn2C1c1ccc(OC)c(Br)c1 (stereo not drawn)	7.1%	2.6%
Cc1ccc(N2C(=O)C3CCC(C)(C2=O)C3(C)C)cc1C (stereo not drawn)	-0.5%	-4.8%
CC1(C)Oc2ccc3ccc(=O)oc3c2-c2cn[nH]c21	14.4%	4.5%
Cc1cccc(N2CCc3c2nc2ccc(Br)cc2c3N)c1	-16.1%	0.0%
CCOc1ccc(CCNC(=O)COC(=O)c2cc(=O)[nH]c3ccccc23)cc1OCC	-7.8%	x
CC(=O)N1CCN(S(=O)(=O)c2cccc(C(=O)N(C)Cc3ccc(C)o3)c2)CC1	-4.7%	2.7%
CN1/C(=C\C(=O)c2cccc([N+](=O)[O-])c2)Sc2ccccc21	3.9%	-3.4%
O=C(NCC1CCCN1S(=O)(=O)c1cccs1)c1cccc(F)c1 (stereo not drawn)	19.1%	-0.3%
O=C(CSc1nnc(-c2cccnc2)s1)Nc1ccccc1	7.6%	1.3%
CC(C)CCn1c(CN2CCN(Cc3ccccc3)CC2)nc2c1c(=O)[nH]c(=O)n2C	0.4%	0.0%
COC(=O)[C@@H](Cc1c[nH]c2ccccc12)NC(=O)CCC(=O)c1ccc(F)cc1	-17.3%	x
(next part)
SMILES	FEN1 inhibitor	TDP1 block
COCCOC(=O)C1=C(C)NC2=C(C(=O)CCC2)C1c1cc2c(cc1Br)OCO2 (stereo not drawn)	-12.5%	4.9%
CC1CCCN(CCCNC(=O)c2ccc(N3CCCC3=O)cc2)C1 (stereo not drawn)	-10.2%	0.5%
COC(=O)c1c(C)[nH]c(C(=O)/C=C/c2ccccc2F)c1C	-5.9%	2.4%
NS(=O)(=O)c1ccc(CNC(=O)CCCSc2ccccc2)cc1	-0.1%	-9.8%
CN1CCN(C(=O)c2ccc3c(=O)n(Cc4ccco4)c(=S)[nH]c3c2)CC1	-2.4%	3.5%
Cc1ccc2c(Cl)c(C(=O)NCC(c3ccco3)N3CCCC3)sc2c1 (stereo not drawn)	-20.3%	9.2%
Cn1c(NC(=O)c2cccc(C(F)(F)F)c2)cc(=O)n(C)c1=O	-2.6%	2.6%
Cn1c(=O)n(C)c2cc(NC(=O)C(F)(F)F)ccc21	3.4%	5.5%
CCN(CC)S(=O)(=O)c1cccc(-c2nnc(SCC(=O)NCCC3=CCCCC3)n2N)c1	-13.4%	6.1%
Cc1ccc(-n2nnnc2-c2cnoc2-c2cccc(F)c2)cc1	-5.3%	2.6%
COc1ccc(NC(=O)CS(=O)CC(=O)Nc2cccnc2)cc1 (stereo not drawn)	-2.2%	x
NC(=O)N/N=C/c1ccc(OCc2cccc(Cl)c2)cc1	-2.0%	-1.2%
CN(C)c1ccc(NC(=O)c2cccc([N+](=O)[O-])c2)c2ccccc12	3.0%	x
O=C(O)c1cccc(NS(=O)(=O)/C=C/c2ccccc2)c1	3.9%	-3.5%
CCO[C@@H]1OC(C(=O)N2CCN(C)CC2)=C[C@H](c2ccc(C(F)(F)F)cc2)[C@H]1CCCO	11.4%	2.6%
O=C(c1cccc([N+](=O)[O-])c1)N1CCN(c2ccc(N3CCOCC3)nn2)CC1	-2.6%	-6.9%
CCOc1ccc(C(=O)NC2CCN(S(=O)(=O)CC)CC2)cc1	-0.8%	-1.0%
CCOC(=O)C(=O)N1CCC(Cc2ccccc2)CC1	7.3%	3.8%
COc1ccc2[nH]c(-c3cccc(F)c3)cc(=O)c2c1	-17.0%	7.1%[234 µM]
CCOC(=O)c1cnc(SCC(=O)NNC(=O)c2ccco2)nc1N	-3.1%	-0.3%
O=C(O)Cn1cc(/C=N/Nc2ccc([N+](=O)[O-])cn2)c2ccccc21	-14.0%	x

Compound profiles, from the list above. Order of screens: FEN1 inhibitor, TDP1 block
`CC(=O)N1CCN(S(=O)(=O)c2cccc(C(=O)N(C)Cc3ccc(C)o3)c2)CC1` as listed: -4.7%, 2.7%
`COc1ccc(OCC(=O)Nc2ccc(S(=O)(=O)N3CCCCC3)cc2)cc1` as listed: -25.7%, x
`COC(=O)c1[nH]c2ccccc2c1NC(=O)CN1CCN(c2cccc(OC)c2)C(C)C1` (stereo not drawn) as listed: -15.6%, 10.9%
`CCOC(=O)C1CCCN(C(=O)c2ccccc2NC(=O)C2=C(C)OCCS2)C1` (stereo not drawn) as listed: 0.4%, 1.7%
`CC(C)CCn1c(CN2CCN(Cc3ccccc3)CC2)nc2c1c(=O)[nH]c(=O)n2C` as listed: 0.4%, 0.0%

4 of the compounds above, as labelled records.
CCOc1ccc(C(=O)NC2CCN(S(=O)(=O)CC)CC2)cc1
  FEN1 inhibitor: -0.8%
  TDP1 block: -1.0%
CCOC(=O)C(=O)N1CCC(Cc2ccccc2)CC1
  FEN1 inhibitor: 7.3%
  TDP1 block: 3.8%
COc1ccc2[nH]c(-c3cccc(F)c3)cc(=O)c2c1
  FEN1 inhibitor: -17.0%
  TDP1 block: 7.1%[234 µM]
CCOC(=O)c1cnc(SCC(=O)NNC(=O)c2ccco2)nc1N
  FEN1 inhibitor: -3.1%
  TDP1 block: -0.3%
